Assay outcomes from PubChem BioAssay.
VDR inhibitor – Inhibitors of the vitamin D receptor (VDR): qHTS | VDR-SRC2-3 peptide fluorescence polarization, 2 h | Vitamin D3 receptor (Homo sapiens), P11473 | 400,000 tested, 0.93% active | Potency, µM, for inactives: max response, negative = inhibition, hits mostly inhibitors; active = well fitted inhibition curve with a large enough effect; inconclusive = small, poorly fitted or top-dose-only effect, or another doubt; inactive = no such curve, though single readings can be large or run the other way; also: series mostly up to about 120 µM
Target sequence (P11473 whole entry, looked up): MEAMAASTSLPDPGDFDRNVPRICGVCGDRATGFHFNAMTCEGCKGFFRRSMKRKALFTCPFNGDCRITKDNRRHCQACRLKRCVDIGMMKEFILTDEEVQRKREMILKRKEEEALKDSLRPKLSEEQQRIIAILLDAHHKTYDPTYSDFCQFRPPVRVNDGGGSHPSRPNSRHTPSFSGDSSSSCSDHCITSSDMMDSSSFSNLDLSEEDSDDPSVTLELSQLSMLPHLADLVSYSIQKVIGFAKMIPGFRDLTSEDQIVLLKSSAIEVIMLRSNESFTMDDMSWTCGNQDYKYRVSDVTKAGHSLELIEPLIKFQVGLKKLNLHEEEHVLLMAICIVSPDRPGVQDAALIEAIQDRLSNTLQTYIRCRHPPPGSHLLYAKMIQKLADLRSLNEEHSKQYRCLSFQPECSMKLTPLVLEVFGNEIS
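Signal is fluorescence polarization, reporting how far test compounds block the interaction of VDR with the SRC2-3 coregulator peptide after a 2 h room-temperature incubation.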
Numbers without * were called inactive; & = joins results of further samples. % is scaled to controls: 0 for no effect and ±100 for the full control effect; potency is read from the fitted curve at half-maximal effect. This is a subset; count on the stated rates, not on these rows.

Screening Cc1ccc(NC(=S)N2CCCN(Cc3ccc(F)cc3)C2)c(C)c1 returned VDR inhibitor -5%.
For O=C(CN1CCN(c2ccccc2F)CC1)Nc1ccccc1F the results were VDR inhibitor 5%.
Screening Cc1ccc(Cn2c(CCC(=O)O)nc3ncccc3c2=O)cc1 returned VDR inhibitor -10%.
Cc1cccc(C)c1NC(=O)CN1C(=O)CCSc2ccc(S(=O)(=O)N3CCCC3)cc21 was read as VDR inhibitor 10%&0%.
Screening Cc1ccc(CNc2nc(C)nc3sc4c(c23)CCC4)cc1 returned VDR inhibitor 10%.
CCCCN(C)CCC(=O)Nc1ccc(OC)cc1OC was read as VDR inhibitor 10%.
CC(C)Oc1ccc(C(=O)NCCc2csc(-c3cccc(F)c3)n2)cc1 was read as VDR inhibitor 6%.
For CCOC(=O)c1c(NC(=O)Nc2ccc(F)cc2)sc(C(=O)N(C)C)c1C the results were VDR inhibitor -2%.
Screening Cc1nc2ccccc2n1CC(=O)N/N=C\c1ccccn1 returned VDR inhibitor -13%.
`CCOC(=O)C(NC(=O)c1ccccc1)(Nc1nnc(C)s1)C(F)(F)F` (stereo not drawn) gave VDR inhibitor -7%.
`OCCCNCc1ccc(-c2ccccc2)cc1` gave VDR inhibitor -10%.
Oc1ccccc1C(=S)N1CCCCCC1 was read as VDR inhibitor -4%.
CC(C)Cc1nc(N2CCOCC2)c(C#N)c2c1COC(C)(C)C2 was read as VDR inhibitor 14%.
For CCC1=C(CC2NCCc3ccccc32)CC2c3cc(OC)c(OC)cc3CCN2C1 (stereo not drawn) the results were VDR inhibitor -13%.
O=[N+]([O-])c1cnc(Sc2ccncn2)s1 was read as VDR inhibitor 22µM*.
Screening CC(=O)Oc1ccc2cc(-c3nc4ccccc4n3C)c(=O)oc2c1 returned VDR inhibitor 4%.
Cc1cc(C(=O)CN2C(=O)C(=O)N(Cc3ccccc3)C2=O)c(C)n1-c1ccccc1F was read as VDR inhibitor 16%.
For COc1ccc(S(=O)(=O)Nc2cccc3c2O[C@H](CN(C)Cc2ccc(Oc4ccccc4)cc2)[C@@H](C)CN([C@H](C)CO)C3=O)cc1 the results were VDR inhibitor -10%.
For COc1cccc(C(=O)NCc2ccc(-c3nc4ccccc4s3)cc2)c1 the results were VDR inhibitor -1%.
O=C1C(=O)N(CCCN2CCOCC2)C(c2ccc([N+](=O)[O-])cc2)/C1=C(\O)c1ccc2c(c1)OCCO2 (stereo not drawn) was read as VDR inhibitor -9%.
Screening CCc1c(C)sc(NC(=O)Cc2ccccc2OC)c1C(=O)N1CCOCC1 returned VDR inhibitor 7%.
CCOC(=O)CN1N=C(/C=C/c2ccccc2)CCC1=O was read as VDR inhibitor -10%.
`COC(=O)c1ccc(-c2c(-c3ccccc3)ncc3cc(OC)c(OC)cc23)cc1` gave VDR inhibitor -7%.
`CCOC(=O)CC1=Nc2ccccc2NC(=O)C1` gave VDR inhibitor 6%.
`CNc1ccnc(-c2cccc(NS(C)(=O)=O)c2)n1` gave VDR inhibitor -1%.
For CN(C(=O)COC(=O)c1cncc(Br)c1)C1CCS(=O)(=O)C1 (stereo not drawn) the results were VDR inhibitor 5%.
`COc1ccc(S(=O)(=O)n2cnc3ccccc32)c(C)c1` gave VDR inhibitor 2%.
CCCn1c(SCC(=O)Nc2cccc(C)n2)nnc1-c1ccco1 was read as VDR inhibitor -5%.
Cc1ccc(NC(=O)CSc2nc3c(c(=O)[nH]2)CCC3)cc1C was read as VDR inhibitor -4%.
`COc1ccc(C(c2nnnn2C2CCCC2)N2CCN(C3CCCC3)CC2)cc1OC` (stereo not drawn) gave VDR inhibitor -2%.
`COc1cccc(OC)c1C(=O)Nn1c(-c2cccs2)nc2ccccc2c1=O` gave VDR inhibitor -6%.
Screening Cc1c(Cl)cccc1NC(CC(=O)c1ccccc1)C(=O)OCC(=O)c1cccs1 (stereo not drawn) returned VDR inhibitor inconclusive.
Screening CCn1c2ccccc2c2cc(NC(=O)C(C)Oc3ccc(OC)cc3)ccc21 (stereo not drawn) returned VDR inhibitor 13%.
`CC12CN3CC(C)(CN(C1)C3c1ccc3c(c1)OCO3)C2O` (stereo not drawn) gave VDR inhibitor 13%.
For COc1ncc2nc(-c3cccc(C#N)c3)c(=O)n(CCC#N)c2n1 the results were VDR inhibitor -2%.
`CCC(C(=O)OCC(=O)c1c(N)n(CC(C)C)c(=O)n(C)c1=O)c1ccccc1` (stereo not drawn) gave VDR inhibitor -12%.
For Nc1nonc1-c1noc(-c2ccccc2Br)n1 the results were VDR inhibitor 4%.
COc1ccc(Cl)cc1S(=O)(=O)N1CCC(C(=O)NCc2ccco2)CC1 was read as VDR inhibitor -7%.
Screening CCOc1ccc(NC(=O)CN(C)C(=O)C2CC(=O)N(Cc3ccco3)C2)cc1OCC (stereo not drawn) returned VDR inhibitor 3%.
COc1ccc2cc(C(=O)C3CCCN(C(=O)c4sc(C)nc4C)C3)ccc2c1 (stereo not drawn) was read as VDR inhibitor -10%.
For Cc1ccc(NC(=O)NCc2ccccn2)c(C)c1 the results were VDR inhibitor 0%.
CC12CCC(C(=O)N(CC3CO3)C1=O)C2(C)C (stereo not drawn) was read as VDR inhibitor 0%.
`COc1cc(NC(=O)c2cc(S(=O)(=O)N3CCCCC3)ccc2N2CCOCC2)cc(OC)c1OC` gave VDR inhibitor -11%.
For CC(=O)Oc1ccc2oc(C)c(C(=O)N3CCOCC3)c2c1 the results were VDR inhibitor -21%.
Screening Cn1cnc(S(=O)(=O)NCc2ccc(Br)cc2)c1 returned VDR inhibitor 4%.
O=C(Nc1ccccc1OC(F)(F)F)c1ccc([N+](=O)[O-])cc1 was read as VDR inhibitor -1%.
For CCCN(Cc1cc2ccc(C)cc2[nH]c1=O)C(=O)c1ccccn1 the results were VDR inhibitor 22%.
COc1ccccc1NC(=O)CN(C)S(=O)(=O)c1cccc2cccnc12 was read as VDR inhibitor 1%&-8%.
`Cc1ccc(C(=O)NCc2ccncc2)cc1S(=O)(=O)N1CCOCC1` gave VDR inhibitor 2%.
`Cc1cccc2sc(NC(=O)C3CCN(S(=O)(=O)c4cc([N+](=O)[O-])ccc4Cl)CC3)nc12` gave VDR inhibitor -11%.
For O=C(COc1ccc(/C=N/NC(=O)c2ccccc2Br)cc1)Nc1ccccc1 the results were VDR inhibitor 3%.
`Cc1cc(C)cc(C(=O)NCCCc2ccccc2)c1` gave VDR inhibitor 3%.
`COc1ccc2c(c1)O/C(=C\c1ccco1)C2=O` gave VDR inhibitor 9%.
`COc1cc(C(=O)N/N=C(\C)c2ccccn2)cc(OC)c1OC` gave VDR inhibitor 5%.
For COc1ccc2c(c1)c1c(c(=O)n(Cc3ccccc3)c(=O)n1Cc1ccc(C)cc1)n2C the results were VDR inhibitor -1%.
Screening CC(C)CCN1C(=O)c2ccc(C(=O)Nc3ccccn3)cc2C1=O returned VDR inhibitor 12%.
For N/C(Cc1ccc(Cl)cc1)=N\OC(=O)c1ccccc1 the results were VDR inhibitor 6%.
O=C(CNC(=O)c1ccccc1F)OCc1csc(-c2ccccc2)n1 was read as VDR inhibitor 17%.
Screening Cc1cc(C)c2sc(C)[n+](CCCS(=O)(=O)[O-])c2c1 returned VDR inhibitor inconclusive.
Screening Cc1cc(=O)n2[nH]c(N)c(N=Nc3ccccc3)c2n1 returned VDR inhibitor -18%.

The final six records of the part above come first, to join the parts.
For COc1ccc2c(c1)c1c(c(=O)n(Cc3ccccc3)c(=O)n1Cc1ccc(C)cc1)n2C the results were VDR inhibitor -1%.
Screening CC(C)CCN1C(=O)c2ccc(C(=O)Nc3ccccn3)cc2C1=O returned VDR inhibitor 12%.
For N/C(Cc1ccc(Cl)cc1)=N\OC(=O)c1ccccc1 the results were VDR inhibitor 6%.
O=C(CNC(=O)c1ccccc1F)OCc1csc(-c2ccccc2)n1 was read as VDR inhibitor 17%.
Screening Cc1cc(C)c2sc(C)[n+](CCCS(=O)(=O)[O-])c2c1 returned VDR inhibitor inconclusive.
Screening Cc1cc(=O)n2[nH]c(N)c(N=Nc3ccccc3)c2n1 returned VDR inhibitor -18%.
Cc1ccc(S(C)(=O)=O)cc1C(=O)NC(C)C1CC2CCC1C2 (stereo not drawn) was read as VDR inhibitor 3%.
COc1nc(NCCN2CCOCC2)nc(Nc2ccccc2)n1 was read as VDR inhibitor 8%.
Screening CN(C(=O)c1ccco1)c1ccccc1C(=O)O returned VDR inhibitor -5%.
For COc1ccc(-c2csc(NC(CO)c3nc4ccccc4n3Cc3ccc(C)cc3)n2)cc1 (stereo not drawn) the results were VDR inhibitor -5%.
Screening CSc1nc2sc3c(c2c(=O)n1-c1ccc(F)c(Cl)c1)CCN(C(C)=O)C3 returned VDR inhibitor 2%.
For O=c1[nH]cc(S(=O)(=O)N2CCN(c3cccc(Cl)c3)CC2)c(=O)[nH]1 the results were VDR inhibitor 16%.
Screening Cc1c(C(=O)O)sc(S(=O)(=O)N2CCN(C(=O)Cc3ccc(F)cc3)CC2)c1C(=O)O returned VDR inhibitor inconclusive.
Screening CN1CCN(C(=O)CCC(=O)O)CC1 returned VDR inhibitor -11%.
O=C1NC(=S)CN1c1ccccc1 was read as VDR inhibitor 32µM*.
O=C(COC(=O)COc1ccccc1[N+](=O)[O-])Nc1cccc(Br)c1 was read as VDR inhibitor 1%.
For Cc1nc(C)c(C(=O)C2=C(O)C(=O)N(CCCn3ccnc3)C2c2ccccc2)s1 (stereo not drawn) the results were VDR inhibitor -17%.
`CCC(C)N1CCN(S(=O)(=O)c2ccc(NC(C)=O)cc2)CC1` (stereo not drawn) gave VDR inhibitor 7%.
CCN(CC(O)Cn1c2ccccc2c2ccccc21)S(=O)(=O)c1ccc(C)cc1 (stereo not drawn) was read as VDR inhibitor -6%.
Cc1ccc2oc(C(=O)Nc3nnc(CC(C)C)s3)c(C)c2c1 was read as VDR inhibitor 0%.
`O=C(CN1C(=O)c2cccc([N+](=O)[O-])c2C1=O)NNC(=O)c1ccc(F)cc1` gave VDR inhibitor 10%.
COc1ccccc1OCCNC(=O)/C=C/c1ccc([N+](=O)[O-])cc1 was read as VDR inhibitor 2%.
For CN(C)S(=O)(=O)n1cc(/C=C(\NC(=O)c2ccccc2Cl)C(=O)N2CCCC2)c2ccccc21 the results were VDR inhibitor -4%.
Screening CCOC(=O)C1=C(N)N2C(=O)C(C)SC2=C(C(=O)OCC)C1c1cc(OC)c(OC)c(OC)c1 (stereo not drawn) returned VDR inhibitor 12%.
`O=C(NCC(c1ccc(F)cc1)N1CCOCC1)c1cccnc1Sc1ccccc1Cl` (stereo not drawn) gave VDR inhibitor -11%.
Screening Cc1ccc(S(=O)(=O)CC(=O)Nc2cccc(C)n2)cc1 returned VDR inhibitor 10%.
`Cc1c(C(=O)NCCNc2ncc(C(F)(F)F)cc2Cl)cccc1[N+](=O)[O-]` gave VDR inhibitor 2%.
For Cc1ccc(CN2CC(C(=O)Nc3cccc(S(=O)(=O)N4CCCCC4)c3)CC2=O)cc1 (stereo not drawn) the results were VDR inhibitor 3%.
Screening Cc1ccc2oc(=O)c3cnn(CC(=O)NCc4ccccc4Cl)c3c2c1 returned VDR inhibitor inconclusive.
COc1ccc(N(CC(=O)NCc2cccc(OC)c2)S(=O)(=O)c2c(C)noc2C)cc1 was read as VDR inhibitor -5%.
Screening Cc1ccc(-n2ncc(C#N)c2N)cc1 returned VDR inhibitor 3%.
For O=C1CCCc2cc(S(=O)(=O)N3CCC(C(=O)NCc4ccccc4)CC3)ccc2N1 the results were VDR inhibitor -4%.
O=C(Nc1nccs1)c1cccc(N2C(=O)C3C4C=CC(C4)C3C2=O)c1 (stereo not drawn) was read as VDR inhibitor -1%.
Screening Cc1ccc(OS(=O)(=O)c2c(C)nn(C)c2Cl)c(C)c1 returned VDR inhibitor 15%.
Screening Cc1cc(C)c(C(=O)COC(=O)[C@H](C)Nc2ccc(C(F)(F)F)cc2[N+](=O)[O-])c(C)c1 returned VDR inhibitor -15%.
CCCCc1[nH]c(=O)c(C#N)c2c1CSC(C)(C)C2 was read as VDR inhibitor inconclusive.
`Cc1noc(C)c1C(=O)NNc1ccc(C(C)C)cc1` gave VDR inhibitor -25%.
COC(=O)c1cnc(Nc2cc(C)ccc2OC)c2ccccc12 was read as VDR inhibitor 3%.
NC1(C(=O)O)CCCCC1 was read as VDR inhibitor -6%.
Screening COc1cc(/C=C/C(=O)c2ccc(O)cc2O)ccc1O returned VDR inhibitor inconclusive.
O=C(Nc1ccc2nc(-c3cccs3)c(-c3cccs3)nc2c1)N1CCOCC1 was read as VDR inhibitor -8%.
`CCC(=O)Nc1ccc(N2CCN(Cc3ccccc3)CC2)cc1` gave VDR inhibitor -9%.
`COC(=O)C(C)Sc1nc2c(c(=O)n1-c1ccccc1)SCC2` (stereo not drawn) gave VDR inhibitor -8%.
`O=C(N/N=C/c1ccc([N+](=O)[O-])o1)c1cn(-c2ccccc2)nc1-c1ccc(F)cc1` gave VDR inhibitor 1%.
Oc1cccnc1CN1CCOCC1 was read as VDR inhibitor -12%.
`CC(C)(C)NS(=O)(=O)c1ccc(CCC(=O)Nc2ccc3c(c2)OCCO3)cc1` gave VDR inhibitor -8%.
CCCCNc1ncnc2c1cnn2-c1ccc(Cl)cc1 was read as VDR inhibitor -26%.
Screening COc1cccc(CN(C)CC(=O)Nc2c(C)cccc2C(C)C)c1 returned VDR inhibitor -7%.

By substructure: those above with a CF3 group
`CCOC(=O)C(NC(=O)c1ccccc1)(Nc1nnc(C)s1)C(F)(F)F` (stereo not drawn) gave VDR inhibitor -7%.
O=C(Nc1ccccc1OC(F)(F)F)c1ccc([N+](=O)[O-])cc1 was read as VDR inhibitor -1%.
`Cc1c(C(=O)NCCNc2ncc(C(F)(F)F)cc2Cl)cccc1[N+](=O)[O-]` gave VDR inhibitor 2%.
Screening Cc1cc(C)c(C(=O)COC(=O)[C@H](C)Nc2ccc(C(F)(F)F)cc2[N+](=O)[O-])c(C)c1 returned VDR inhibitor -15%.
